# Source: PubChem BioAssay (several laboratories)
# Sa RN4220 lethal – S. aureus RN4220 growth inhibition | OD600, 16 h | inhibition, % (no concentration beside the values) | 330,000 tested, 0.33% active | AID 1259311;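 active = z-score of -3 or lower and OD600 up to 0.18 on both plates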;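 note: plate controls were untreated cells for no effect and reference antibiotic for full effect; stock transfer was 100 nL into about 80 µL; one replicate is shown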
# Bead autofluor – compound fluorescence in toxin protease inhibitor counterscreen. fluorescence intensity (concentration not given with the values). compound autofluorescence counterscreen, microsphere flow cytometry; hits give high values. AID 624483. 360,000 tested, 3.1% active;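 active = at least 3 SD above the mean of all compounds, about 16000 in these data; inconclusive = too few beads counted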;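 note: 100 nL of 1 mM stock went into each well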
# PrP UTR inh – inhibition of PrP 5' UTR reporter expression | cell-based PrP 5' UTR mRNA reporter, plate reader | inhibition, % (concentration not given with the values) | 340,000 tested, 0.35% active | AID 488862;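 active = every replicate at 50% or more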;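 note: 0 = median of the neutral control wells; tested in H4 reporter cells; numbers are from one replicate; inactives centre near -14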
# BJeLR viability – BJeLR cell viability loss; inhibition, % (no concentration beside the values); AID 1554; 300,000 tested, 0.17% active; BJeLR (HRASV12) viability, CellTiter-Glo ATP luminescence, 48 h; reference of the scale not given here;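 active = replicate mean above 50%; inconclusive = above 50% but judged a plate artefact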;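 note: 50 nL library stock added to about 25 µL; numbers are from one replicate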
# Mtb hypoxia inh – reduces hypoxia-regulated biosensor signal in M. tuberculosis; fluorescence inhibition, % (no concentration beside the values); AID 1159583; 300,000 tested, 0.1% active; M. tuberculosis hypoxia-regulated fluorescent reporter, fluorescence;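 active = 35 to 45% if threefold the growth effect, above 45% if 1.5-fold the growth effect; inactive = the rest, general growth blockers included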;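 note: wells of about 50 µL received 100 nL stock; 0% = vehicle wells and 100% = reference inhibitor wells; whole bacteria with a GFP reporter of the hypoxia response; strong numbers were not always called active; many hits fall short of the cut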
# ugtP null kill – compounds lethal to S. aureus RN4220 ugtP deletion mutant; OD600 growth, 16 h; some inactives read as strong as hits; growth inhibition, % (concentration not given with the values); 330,000 tested, 0.54% active;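 active = z-score under -3 and OD600 up to 0.15 on both plates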;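 note: plate controls were untreated wells for no effect and antibiotic for full effect; wells of about 80 µL received 100 nL stock; the first replicate is given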
# Mtb hypoxia inh growth – recorded beside Mtb hypoxia inh, whose call it bears; growth inhibition, %; measured here: M. tuberculosis growth (absorbance);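 0% = vehicle and 100% = reference antibiotic; read after six days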
# Active calls of the source: *; ? = inconclusive; · = no result given.
structure	Sa RN4220 lethal	Bead autofluor	PrP UTR inh	BJeLR viability	Mtb hypoxia inh	Mtb hypoxia inh growth	ugtP null kill
Cc1cccc(NC(=O)Nc2ccc(Cl)c(Cl)c2)n1	-4.4	4123	-76	0	11	0	-9
COc1ccc(-n2cc(CNCCCn3ccnc3)c(-c3cccc(F)c3)n2)cc1	6.1	2583	-22	12	·	·	-6
Cn1c(NC(=O)c2cccc(Cn3cc(Cl)cn3)c2)nc2ccccc21	4.1	7515	-52	-6	2	8	-1
CC1CCc2c(sc3nc(C(C)(C)C)nc(N4CCN(C(=O)CCl)CC4)c23)C1 (configuration not stated)	·	3854	-9	85*	·	·	·
CC[C@H](C)[C@H](NC(N)=O)C(=O)NCCc1ccc(Cl)cc1	2.0	4299	-9	5	16	15	9
Cn1cnnc1SC/C(O)=C(\C#N)c1nc2ccccc2[nH]1	0.3	2219	-31	-5	-11	4	4
COC(=O)C(Cc1csc2ccc(Cl)cc12)NC(=O)c1ccc(Cl)cc1 (configuration not stated)	-14	4412	-16	7	13	4	-17
Cc1ccc(C(=O)N2NC(c3ccc(F)cc3)C3C(=O)N(c4ccc(C)c(C)c4)C(=O)C32)cc1 (configuration not stated)	1.7	4514	-14	-9	·	·	17
CC(C(=O)Nc1ccccc1-c1ccccc1)N1CCCCC1 (configuration not stated)	3.4	2783	-11	4	·	·	2
c1ccc(CNc2nc(CN3CCOCC3)nc3scc(-c4ccccc4)c23)cc1	7.7	9675	-6	-13	7	4	4
COc1ccc(/C(O)=C2/C(=O)C(=O)N(CCN(C)C)C2c2ccc(F)cc2)cc1Cl (configuration not stated)	0.2	6893	-5	-5	11	-4	3
O=C1CC(c2cc3c(cc2Br)OCO3)C2=C(CCCC2=O)N1 (configuration not stated)	-1.5	2756	-4	-6	·	·	0
CC(C)(C)C(=O)N1CCN(c2ccc(NC(=O)c3ccc4c(c3)OCCO4)cc2)CC1	2.5	3399	-3	-7	-1	5	-1
CCCCOc1ccccc1N1CCN(CCCN2C(=O)C3CCCN3C2=O)CC1 (configuration not stated)	-0.1	3608	-23	4	11	7	0
N#Cc1ccc(CSc2nnc(-c3c[nH]c4ccccc34)n2-c2ccccc2)cc1	-7.9	3397	3	11	12	-4	2
Cc1c(Cl)cccc1NC(=O)CCC(=O)NN=Cc1ccc[nH]1	-2.5	·	·	·	8	3	0
CNC(=O)c1ccsc1NC(=O)CCS(=O)(=O)c1ccc(C)cc1	2.9	?	-15	-8	1	2	9
CCNC(=O)CN(C1CCCCC1)S(=O)(=O)c1ccc(F)cc1	3.4	3601	-22	-10	13	18	-4
CC(C)=CC(=O)Nc1nnc(-c2ccc(F)cc2)s1	6.1	5842	-21	4	6	10	-6
O=C1CCCC(=NNC(=O)c2sc3ccccc3c2Cl)C1	0.7	·	·	·	8	6	0
COc1ccc(N=C(N)SCc2ccccn2)cc1	-4.2	8016	-14	3	-2	-2	6
CCOC(=O)C1=C(CN2CCSCC2)NC(=O)NC1c1cc(C)ccc1C (configuration not stated)	3.1	8967	4	5	-17	-4	-7
C=CCc1c(C)nc(-c2ccccc2)nc1NN=Cc1ccncc1	-0.9	·	·	·	0	15	1
COc1ccc(C(N)=NOC(=O)c2ccco2)cc1OC	5.7	·	·	·	10	14	0
COc1ccc(C=NNC(=O)c2ccc(=O)n(C)c2)cc1OC	-1.0	·	·	·	-3	-5	-2
O=C(NCC(=O)N1CCOCC1)c1ccc(Br)cc1	2.5	5456	-20	-7	8	-7	-3
Cc1ccccc1NC(=O)Cc1nc(COC(=O)c2ccc(S(C)(=O)=O)c([N+](=O)[O-])c2)cs1	8.1	·	·	·	5	1	0
COc1ccc(CC(=O)NCC2CCCN(Cc3ccc(F)cc3F)C2)cc1 (configuration not stated)	-1.6	4014	-31	9	-2	15	5
CC(C)CN(CC(C)C)CC(O)CN(c1ccccc1)S(=O)(=O)c1ccccc1[N+](=O)[O-] (configuration not stated)	13	5344	-16	-3	2	0	12
CN(C)C(=O)c1ccc(NC(=O)c2cccc(S(=O)(=O)N3CCN(Cc4ccccc4)CC3)c2)cc1	3.3	4282	-14	·	2	12	3
CC(/C=N/O)Cc1ccc2c(c1)OCO2 (configuration not stated)	·	3331	-21	-1	·	·	·
Cc1nnc(SC(C)C(=O)Nc2ccc3ccccc3c2)[nH]c1=O (configuration not stated)	4.1	3109	-24	-5	3	-6	12
COc1ccc(NC(=O)CN(C)C(=O)Cn2cnc3c2c(=O)n(C)c(=O)n3C)cc1	2.0	?	-10	6	12	3	9
CC(Sc1nnc(N)s1)c1ccccc1Cl (configuration not stated)	6.2	5555	-9	5	·	·	6
COc1cc2c(cc1OC)C(=O)CC(C)S2 (configuration not stated)	9.3	2552	-9	15	12	4	6
CCCN(CCC)S(=O)(=O)c1cc2c(cc1Br)CCN2C(=O)CC	6.7	4077	-19	·	1	13	-7
COc1ccccc1CN1CC(C(=O)NCCC2=CCCCC2)CCC1=O (configuration not stated)	4.8	4601	-25	9	6	-1	13
C=CCOCCN(C)C1=NS(=O)(=O)c2cc([N+](=O)[O-])ccc21	0.8	4496	-6	3	-8	-7	8
Cc1ccc(SCc2cc(-c3ccc(Cl)cc3)on2)cc1	6.9	2191	-13	1	·	·	18
Cc1ccc(NC(=O)CNC(=O)c2sc3ccccc3c2Cl)nc1	5.7	5188	-46	-2	0	1	-8
O=C(CSc1n[nH]c(=O)[nH]c1=O)NC1CCCCC1	8.5	3584	-4	1	6	0	6
CC(=O)n1cc([C@@H]2C=C(C(=O)Nc3ccccc3)O[C@H](OCc3ccc(CO)cc3)C2)c2ccccc21	·	3501	-15	7	·	·	·
Cc1ccc(NC(=O)CS(=O)(=O)c2c[nH]c3ccccc23)c(C)c1	-3.4	6733	9	-7	2	9	-5
CC(C)(C)c1cc(C=NNC(=O)C[n+]2ccccc2)cc(C(C)(C)C)c1O	2.6	·	·	·	8	-1	0
O=C(OCCNc1ccc(C(F)(F)F)cc1[N+](=O)[O-])c1cc2ccccc2oc1=O	6.5	5305	-18	0	2	9	2
Cc1ccc(S(=O)(=O)Nc2ccc(C(=O)NCc3ccccn3)cc2)cc1	-2.2	5232	-7	4	-1	-2	3
CC(=O)OC(c1nc2ccccc2c(=O)n1C1CC2(OC1=O)c1ccccc1N1C(=O)C(C)(C)N(O)C12)C(C)C (configuration not stated)	0.5	4217	-8	-4	·	·	-7
COc1ccc(OC)c(-c2nn(-c3ccccc3)cc2C(=O)NCC2CCCO2)c1 (configuration not stated)	2.6	6913	-18	4	8	-7	4
CC(=O)C(CC(=O)N1CCCC1)C(=O)Nc1ccc(Cl)cc1 (configuration not stated)	-0.4	6420	-6	·	-10	-4	1
Cc1ccccc1C(=O)Nc1sc2c(c1C(=O)O)CCC2	·	4925	-18	-3	·	·	·
Cc1sc2ncnc(Nc3ccc(N4CCOCC4)cc3)c2c1-c1ccccc1	1.5	2424	0	-2	4	2	6
CS/C(=N\S(=O)(=O)c1cccs1)Nc1ccc(F)c(Cl)c1	9.9	1904	0	1	·	·	16
Cc1ccccc1OCC(=O)NCCc1nc2ccccc2[nH]1	3.1	2583	-3	-6	-1	1	1
O=C(NCSc1ccnc(SCNC(=O)c2ccccc2)n1)c1ccccc1	5.8	10798	-12	-12	17	5	-4
O=C(OCC(=O)N1CCOCC1)c1ccc(F)cc1Cl	4.7	4521	-9	4	5	2	3
COc1ccc(N2C(=S)N=C(Nc3ccccc3)C23CCCCC3)cc1	5.4	4539	-18	6	-2	-5	4
NNC(=O)c1c(O)c2cccc3c2n(c1=O)CCC3	23	3384	·	0	-3	1	6
C/C(=N/Nc1ccc(C(=O)O)cc1)c1ccc(O)c(O)c1O	·	2053	-3	4	·	·	·
O=C(Nc1ccc(F)cc1)Oc1ccc[nH]c1=O	·	4607	-34	2	·	·	·
CCOc1ccc(Oc2nc(Nc3ccc(C)cc3)nc(N(C)C)n2)nn1	5.4	4577	7	7	·	·	-7

# Structures above that have a COOH group (two):
structure	Sa RN4220 lethal	Bead autofluor	PrP UTR inh	BJeLR viability	Mtb hypoxia inh	Mtb hypoxia inh growth	ugtP null kill
Cc1ccccc1C(=O)Nc1sc2c(c1C(=O)O)CCC2	·	4925	-18	-3	·	·	·
C/C(=N/Nc1ccc(C(=O)O)cc1)c1ccc(O)c(O)c1O	·	2053	-3	4	·	·	·

# (list continues)
structure	Sa RN4220 lethal	Bead autofluor	PrP UTR inh	BJeLR viability	Mtb hypoxia inh	Mtb hypoxia inh growth	ugtP null kill
Cn1cc([N+](=O)[O-])c(C(=O)N/N=C/c2ccc3c(c2)OCO3)n1	·	2522	-18	-2	·	·	·
Cc1ccc(C(=O)NCC(=O)Nc2cccc(C(F)(F)F)c2)cc1	2.3	2532	-26	-5	9	9	-20
Cc1onc(-c2c(Cl)cccc2Cl)c1C(N)=S	8.1	4416	-33	5	10	5	3
Cc1ccc(S(=O)(=O)NN2C(=O)c3ccccc3NC2c2cccc(O)c2)cc1 (configuration not stated)	2.3	4065	-23	15	7	6	-13
C=CCNC(=O)C(=O)NN=Cc1cccc(Br)c1	3.9	·	·	·	8	5	-3
O=C(COc1ccc(Br)cc1)N(Cc1ccccc1)c1ccccn1	-3.0	2606	-27	3	2	1	2
O=C(CSc1ccccn1)c1ccc2c(c1)OCO2	11	10152	-54	1	6	7	5
CCCc1cc(=O)n2[nH]cnc2n1	3.0	14691	-15	0	-1	2	9
COc1ccc(C(NC(=O)CN2CCCCCC2)c2ccc(OC)cc2)cc1	2.1	3615	3	-2	-8	2	16
CN1CCc2nc3ccc(F)cc3c(C(N)=O)c2C1	-0.7	2797	-20	3	·	·	1
Cc1ccc(S(=O)(=O)Nc2c(C)n(C)n(-c3ccccc3)c2=O)cc1C(=O)OC(C)C(=O)c1ccccc1 (configuration not stated)	18	3341	-21	·	21*	55*	22
O=C(O)CC/C(=N\Nc1ccc(S(=O)(=O)N2CCOCC2)cc1[N+](=O)[O-])c1cccs1	·	4123	-3	2	·	·	·
CCOc1ccc(C=NNC(=O)Cc2cccs2)cc1	4.7	·	·	·	2	14	8
CCCc1nn(C)c(C(=O)Nc2cccc(CC)c2)c1Cl	7.3	7139	-38	-2	6	2	8
COc1cc(C=NNC(=O)CNc2n[nH]c(=O)[nH]c2=O)ccc1O	2.2	·	·	·	15	-2	2
COCC(C)n1c(C)cc(C(=O)COC(=O)c2c(C)nn(-c3ccccc3)c2C)c1C (configuration not stated)	-0.4	4886	7	-2	·	·	5
CC(C)(C)NC(=O)C(c1ccccn1)N(C(=O)c1csnn1)C1CCCCC1 (configuration not stated)	0.1	3359	-7	-1	2	-2	3
COc1ccc2[nH]cc(CCNC(=O)Cc3ccc(F)cc3)c2c1	2.7	3275	-12	-11	6	5	8
CCCCNC(=O)Cn1cnc2c(cnn2-c2ccc(C)cc2)c1=O	2.7	3693	-30	20	3	14	8
Cn1ccc(-c2ccccc2)c(C#N)c1=O	5.2	2582	-34	-11	8	4	3
CN1CCN(c2ccc([N+](=O)[O-])c3no[n+]([O-])c23)CC1	56	3488	79*	71*	11	13	98*
O=S(=O)(c1ccccc1)N1CCCCC1c1cccnc1 (configuration not stated)	1.3	12215	-26	-14	1	2	-4
Cc1ccc2nc(SCC(=O)NC3CCCc4ccccc43)[nH]c2c1 (configuration not stated)	2.6	2133	-17	-12	0	9	15
CC1(C(=O)OCC(=O)c2c[nH]c3ccccc23)CC1(Cl)Cl (configuration not stated)	15	10063	-87	7	-4	0	-5
COc1cccc(Nc2nc(CN3CCOCC3)nc3sc4c(c23)CCCC4)c1	3.7	1938	-11	1	3	9	-12
O=c1[nH]c(N2CCOCC2)nc2c1CCCC2	5.3	3854	-16	5	-7	6	-3
Cc1cc(S(=O)(=O)N2CCC(N3CCCCC3)CC2)ccc1-n1cnnn1	9.2	3054	-33	-7	-2	-3	2
